# Screening results deposited in PubChem by National Center for Advancing Translational Sciences (NCATS).
# VACV mCherry inh: vaccinia inhibition (mCherry reporter); 310,000 tested, 0.63% active; Vaccinia virus mCherry reporter infection, fluorescence; about a quarter of the inactives have no number; Potency, µM (titrated, usually from 36.5 µM), inactives show top-dose activity change, negative = inhibition, most hits filed as inhibitors; active = well fitted inhibition curve with a large enough effect; inconclusive = small, poorly fitted or top-dose-only effect; inactive = no such curve, though single readings can be large or run the other way; tested in A549 cells; note: nearly all actives have a fitted effect of over 35% in size; inactives centre near -10
# Vaccinia Venus: vaccinia inhibition (Venus reporter); Vaccinia virus Venus reporter expression, fluorescence; Potency, µM (top dose mostly 36.5 µM), for inactives: at the highest dose activity change, negative = inhibition, usual class: inhibitors; 330,000 tested, 0.46% active; active means well fitted inhibition curve with a large enough effect; inconclusive means small, poorly fitted or top-dose-only effect; inactive means no such curve, though single readings can be large or run the other way; tested in A549 cells; note: nearly all actives have a fitted effect of over 30% in size; inactives centre near -10
# Numbers without * were called inactive; i = inactive; ? = inconclusive; . = not tested or not shown; [ ] = remark or other dose. % is set by controls: 0 for no effect and ±100 for the full control effect; potency is the fitted concentration of half-maximal effect. The order is random; any-hit rate near 0.87%.
Compound | VACV mCherry inh | Vaccinia Venus
Cn1nc(C(=O)Nc2ccc(S(=O)(=O)NCc3ccco3)cc2)c2ccccc2c1=O | -23%[7.34 µM] | -8%[7.34 µM]
O=C(Nc1cc(C(F)(F)F)ccc1N1CCOCC1)c1cccs1 | -6% | -4%
Oc1ccc(N2CCN(CC(O)c3ccccc3)CC2)cc1 (configuration not stated) | ? | 2%
NC(=O)NS(=O)(=O)Oc1ccccc1 | i | -9%
O=C(NCc1ccncc1)[C@@H]1CCCN1C(=O)[C@H]1CCCN1C(=O)c1cccs1 | 20% | 5%
CC(=O)N1CCc2c(sc3c2c(=O)n(-c2ccccc2)c(=O)n3CC(=O)Nc2ccccc2C)C1 | -12% | -7%
O=C(O)c1ccccc1C(=O)O | i | -9%
CCOc1ccc(C(=O)N2CCC(c3nc(-c4ccc(S(=O)(=O)N5CCCC5)cc4)no3)CC2)cc1 | ? | -29%
CC(C)(C)c1cc(CNC2CS(=O)(=O)C[C@@H]2O)cc(C(C)(C)C)c1O (some centres not stated) | -14% | -17%
CCOc1ccc(CN(C)CC(=O)Nc2cccc(S(=O)(=O)N(C)c3ccccc3)c2)cc1 | i | -4%
CC(=O)OC1CCC2C3CCc4cc(O)ccc4C3CCC12C (configuration not stated) | -24% | -18%
C/C(=N/NC(=O)c1sc(NS(=O)(=O)c2ccc(C)cc2)nc1C)c1sc(N)nc1C | 0% | -1%
COc1ccccc1CCNC(=O)CCc1c(C)c2cc3c(C)c(C)oc3cc2oc1=O | -2% | -13%
CCOc1ccccc1/C=N/NC(=O)c1cccc(S(=O)(=O)N2CCOCC2)c1 | i | -8%
O=C(Nc1cccc(F)c1)c1ccc(-c2ccccc2)s1 | -5% | -9%
CCOC(=O)c1cc(-c2csc(Nc3ccccc3Cl)n2)on1 | -15% | -10%
COC(=O)c1ccc2c(c1)NC(=O)C(N1CCCCC1)S2 (configuration not stated) | -2% | -8%
COCc1c(C(=O)OCc2nnc(-c3ccc([N+](=O)[O-])cc3)o2)oc2ccccc12 | i | 3%
CC(C)CC1NC(=O)N(CC(=O)Nc2cc([N+](=O)[O-])ccc2F)C1=O (configuration not stated) | i | -14%
CCN1C(=O)NC(c2ccccc2)C1=O (configuration not stated) | i | -10%
COc1cccc(-c2nnc3n(Cc4ccc(C)cc4)c(=O)c4ccccc4n23)c1O | -17% | -4%
COc1cc(C(C(=O)NC2CCCCC2)N(C(=O)Cc2c[nH]c3ccccc23)c2ccc(C)cc2)cc(OC)c1OC (configuration not stated) | ? | ?
O=C1C(c2ccc(F)cc2)N(CCc2ccccc2)C(=O)CN1C1CCCCCC1 (configuration not stated) | -11% | -6%
Cc1cccc(COC[C@H](Cc2ccccc2)N2CCN(C(=O)c3ccc(Cl)c(Cl)c3)CCC2=O)c1 | -16% | -11%
COc1ccc(NC(=O)CSc2n[nH]c(=O)n2Cc2ccccc2)cc1Cl | -6% | -15%
CCc1ccc(NC(=O)c2cnn3c(C(F)F)cc(C)nc23)cc1 | -14% | -3%
O=C(Nc1ccncc1)c1cc(-c2ccccn2)nc2ccccc12 | -13% | -10%
CCc1cccc(NC(=O)c2nc(-c3ccncc3)no2)c1 | 2% | -7%
COc1cnc(-c2ccccn2)nc1Oc1c(C)cccc1C | ? | ?
COc1cc(C)ccc1NC(=O)c1ccc(S(=O)(=O)N2CCOCC2)cc1 | -10% | -14%
COc1ccc2[nH]c(=S)[nH]c2c1 | . | -2%
CCOc1cccc(-c2cc(=O)[nH][nH]2)c1 | i | -9%
Cc1ccc2c(c1)cc1c(=O)n(Cc3ccc(Cl)cc3)nc(C)n12 | -8% | -6%
CC(C)c1nnc(NC(=O)c2sc3ccccc3c2Cl)s1 | -8%[1.46 µM] | ?
CCCC1CCC(=NNC(=S)NCCc2ccccc2)CC1 (configuration not stated) | -11% | -12%
C=CCNC(=O)c1cc(=O)c2ccccc2o1 | -23% | -2%
COc1ccc(S(N)(=O)=O)cc1C(=O)NCCCN1CCN(c2cccc(Cl)c2)CC1 | i | -14%
Cc1ccc2nc(NCc3ccccc3)c(C=NCc3ccccc3)c(=O)n2c1 | i | -23%
COc1ccc(OC)c(NC(=O)COC(=O)C2CCN(C(=O)c3ccc(Cl)cc3)CC2)c1 | -9% | 1%
CCOc1ccccc1NC(=O)CSc1nnc(C2CC2)n1CC | i | 4%
O=C(COC(=O)CNC(=O)c1ccccc1)NCCCc1ccccc1 | -1% | -12%
CCOC(=O)C1CCN(C(=O)c2ccc(OC)cc2OC)CC1 | -10% | -1%
COC(=O)c1[nH]c(C)c(/C(O)=C2\C(=O)C(=O)N(CCN3CCOCC3)C2c2cccs2)c1C (configuration not stated) | . | -14%
CCOC(=O)n1cc(C(=O)c2ccccc2O)cn1 | -5% | -10%
O=C(COC(=O)c1cc2ccccc2cc1O)NCc1ccccc1 | ? | 0%
O=C(NC1CCCC1)C(c1ccc(Cl)cc1)N(C(=O)c1csnn1)C1CC1 (configuration not stated) | -9% | -6%
Cc1ccccc1C(=O)N1CCN(c2ccc(NC(=O)c3cccnc3)cc2)CC1 | i | 0%
CC(=O)Nc1nc2cc3c(cc2s1)OCCO3 | -22% | -13%
C#CCOCCOCCOCCNc1nc(N2CCOCC2)nc(N2CCN(C(=O)CCCCCCCCCCNC(=O)[C@H]([C@@H](C)CC)n3cc(CCCCN=C(N)N)nn3)CC2)n1 | ? | ?
C=CCn1c(C(C)NC(=O)c2ccccc2)n[nH]c1=S (configuration not stated) | -1% | -7%

# Reprinted at random: 2 compounds from above
Compound | VACV mCherry inh | Vaccinia Venus
Cc1ccccc1C(=O)N1CCN(c2ccc(NC(=O)c3cccnc3)cc2)CC1 | i | 0%
COc1ccc(OC)c(NC(=O)COC(=O)C2CCN(C(=O)c3ccc(Cl)cc3)CC2)c1 | -9% | 1%

# (more compounds)
Compound | VACV mCherry inh | Vaccinia Venus
COCc1c(C(=O)NC2CCCCCC2)oc2ccccc12 | -12% | -13%
COc1ccc(Nc2ccc(OC)cc2)cc1 | ? | 8%
Cc1cc(C)cc(NS(=O)(=O)c2ccc3[nH]cc(C(=O)N4CCCCC4)c(=O)c3c2)c1 | 5% | 4%
CCCn1c(N)c(C(=O)COC(=O)/C=C/c2ccc(OC(F)F)c(OC)c2)c(=O)[nH]c1=O | -14% | -2%
COc1ccc(NC(=O)c2cc(-c3ccco3)on2)cc1 | -13% | -7%
CCOC(=O)C1=CN(Cc2cccc(F)c2)S(=O)(=O)N(CC)C1c1ccc(F)c(Cl)c1 (configuration not stated) | ? | 0%
Cc1ccc([N+](=O)[O-])cc1N(CC(=O)NC1CCCC1)S(C)(=O)=O | -12% | -5%
CSc1nc2sc3c(c2c(=O)n1C)CCC(C)C3 (configuration not stated) | -24% | -2%
CCc1ccc(NC(=O)COC(=O)/C(=C/c2ccccc2OC)c2ccccc2)cc1 | -28% | -22%
Cc1ccc(S(=O)(=O)N2CCN(C(=O)CCC(=O)NCc3cccc(C(F)(F)F)c3)CC2)cc1 | -17% | -8%
COc1ccccc1NC(=O)C(C)OC(=O)Cn1cnc2c1c(=O)n(C)c(=O)n2C (configuration not stated) | -23% | -9%
O=C(CN1CCCCC1)NCC(=O)Nc1ccc(F)c(F)c1F | i | -22%
CC1(C)OC(C(=O)NC2CCCCC2)C(C(=O)NC2CCCCC2)O1 (configuration not stated) | -16% | -13%
CC(=O)c1ccc(NC(=O)Cn2c3ncccc3c(=O)n2-c2ccc(C)cc2)cc1 | -6% | -13%
Cc1ccc(CNC(=O)c2ccccc2NC(=O)CN2CC(C)OC(C)C2)cc1 (configuration not stated) | i | -3%
CCCC(C(=O)Nc1ccncc1)c1ccccc1 (configuration not stated) | -8% | -5%
Cc1ccsc1C(=O)NC(C)c1ccccc1 (configuration not stated) | -17% | 17%
CCC(C)[C@H](NC(=O)[C@@H]1CSC2c3ccccc3C(=O)N21)C(=O)NCc1ccco1 (some centres not stated) | i | -4%
Cc1cc(C)c(OCC(=O)N/N=C/c2ccc3c(c2)OCO3)c(C)c1 | ? | -22%
CCOCCCn1c(=N)c(S(=O)(=O)c2ccc(C)cc2)cc2c(=O)n3cc(C)ccc3nc21 | i | -1%
CCn1nc(C)c(CNC(=O)C2CCC(=O)N(Cc3ccc(Cl)cc3)C2)c1C (configuration not stated) | -6% | 5%
O=C1CSC(=S)N1/N=C/c1cccnc1 | -2%[7.34 µM] | -4%[7.34 µM]
Cc1cc(C)cc(NC(=O)CSc2oc(-c3ccco3)nc2S(=O)(=O)c2ccc(Cl)cc2)c1 | ? | ?
CC(C)CNC(=O)c1ccccc1NC(=O)CSCc1ccccc1 | . | -7%
O=C(Nc1ccc2oc(-c3cccnc3)nc2c1)c1ccc(Br)o1 | . | -16%

# Arranged by length of the SMILES (lowest first): seven of the compounds above.
Compound | VACV mCherry inh | Vaccinia Venus
COc1ccc(Nc2ccc(OC)cc2)cc1 | ? | 8%
O=C1CSC(=S)N1/N=C/c1cccnc1 | -2%[7.34 µM] | -4%[7.34 µM]
COc1ccc(NC(=O)c2cc(-c3ccco3)on2)cc1 | -13% | -7%
Cc1ccc(CNC(=O)c2ccccc2NC(=O)CN2CC(C)OC(C)C2)cc1 (configuration not stated) | i | -3%
CCOC(=O)C1=CN(Cc2cccc(F)c2)S(=O)(=O)N(CC)C1c1ccc(F)c(Cl)c1 (configuration not stated) | ? | 0%
CCC(C)[C@H](NC(=O)[C@@H]1CSC2c3ccccc3C(=O)N21)C(=O)NCc1ccco1 (some centres not stated) | i | -4%
Cc1ccc(S(=O)(=O)N2CCN(C(=O)CCC(=O)NCc3cccc(C(F)(F)F)c3)CC2)cc1 | -17% | -8%

# Continued:
Compound | VACV mCherry inh | Vaccinia Venus
COc1ccc(NC(=O)c2c(NC(=O)C(F)(F)F)sc3c2CCCCC3)cc1 | -13% | -2%
CC1CCN(c2cc(N3CCN(C(=O)c4ccc(F)c(F)c4)CC3)c([N+](=O)[O-])cc2F)CC1 | ? | -22%
CCCCn1c(N)c(Sc2ccc(C)cc2)c(=O)[nH]c1=O | . | -13%
COC(=O)C(Cc1ccccc1)NC(=O)CNC(=O)c1sc2ccccc2c1Cl (configuration not stated) | -2% | -9%
CC(C)NC(=O)CSCc1ccccc1Cl | -22% | -13%
Nc1ccccc1/C=N\N=C/c1ccccc1N | i | -10%
Cc1nc(-c2ccccc2)c(Cc2ccccc2O)c(=O)[nH]1 | i | -18%
CCCCCCn1c(=O)n2n(c1=O)C[C@]1(OC(=O)NCc3ccccc3F)CN(S(=O)(=O)c3ccc(C)cc3)C[C@]1(O)C2 | -15% | ?
COc1ccc2c(c1)CCc1c(C(=O)Nc3c(C)nn(Cc4ccccc4C)c3C)noc1-2 | ? | ?
CSc1ccc(CN2CCN(C(=O)c3ccc([N+](=O)[O-])cc3)CC2)cc1 | -9% | -12%
CN(C)c1ccc(C(O)P(=O)(OC2CCCCC2)OC2CCCCC2)cc1 (configuration not stated) | -18% | -5%
COc1cccc(-n2c(=O)c3sc4ccccc4c3n(CC(=O)Nc3ccccc3OC)c2=O)c1 | -30% | -25%
CCOc1ccc(C2CC(c3cccc(OC)c3)n3nc(N)nc3N2)cc1 (configuration not stated) | -12% | -10%

# Single entries from above.
# Reading for `CC(C)NC(=O)CSCc1ccccc1Cl` under VACV mCherry inh: -22%
# Reading for `COC(=O)C(Cc1ccccc1)NC(=O)CNC(=O)c1sc2ccccc2c1Cl` (configuration not stated) under Vaccinia Venus: -9%

# Whole records, quoted from the list. Order of values: VACV mCherry inh	Vaccinia Venus
# CC(C)NC(=O)CSCc1ccccc1Cl in the list: -22%	-13%
# CCCCCCn1c(=O)n2n(c1=O)C[C@]1(OC(=O)NCc3ccccc3F)CN(S(=O)(=O)c3ccc(C)cc3)C[C@]1(O)C2 in the list: -15%	?
# COc1cccc(-n2c(=O)c3sc4ccccc4c3n(CC(=O)Nc3ccccc3OC)c2=O)c1 in the list: -30%	-25%
